# High-throughput results: PubChem BioAssay, National Center for Advancing Translational Sciences (NCATS)
# VDR inh: Inhibitors of the vitamin D receptor (VDR): qHTS; Vitamin D3 receptor (Homo sapiens), P11473; VDR-SRC2-3 peptide fluorescence polarization, 2 h; Potency, µM, without a hit: max response, negative = inhibition, hits mostly inhibitors; 0.93% of 400,000 active; AID 504847, 2011; active = well fitted inhibition curve with a large enough effect; inconclusive = small, poorly fitted or top-dose-only effect, or another doubt; inactive = no such curve, though single readings can be large or run the other way; also: series mostly up to about 120 µM
# Target sequence (P11473 whole entry, looked up): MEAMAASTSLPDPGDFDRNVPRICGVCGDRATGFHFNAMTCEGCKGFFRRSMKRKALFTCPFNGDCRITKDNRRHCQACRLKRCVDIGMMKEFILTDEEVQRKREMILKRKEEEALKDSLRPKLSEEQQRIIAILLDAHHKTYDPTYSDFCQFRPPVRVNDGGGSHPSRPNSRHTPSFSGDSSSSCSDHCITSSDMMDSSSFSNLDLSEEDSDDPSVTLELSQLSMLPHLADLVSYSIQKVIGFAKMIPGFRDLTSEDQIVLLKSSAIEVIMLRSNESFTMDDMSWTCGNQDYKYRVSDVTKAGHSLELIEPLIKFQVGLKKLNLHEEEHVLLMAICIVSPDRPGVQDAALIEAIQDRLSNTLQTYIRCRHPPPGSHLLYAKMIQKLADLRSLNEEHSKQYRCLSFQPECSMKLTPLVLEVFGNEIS
#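 Reagent solutions, kept cold and dark, are dispensed first; compounds are then pinned in at 23 nl, plates briefly spun, and incubated 2 h at ambient temperature. Inhibition of VDR–SRC2-3 peptide binding is read by fluorescence polarization.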
# Starred values were filed as active, the others as inactive; ? = inconclusive; & = joins results of further samples. % is scaled to controls: 0 for no effect and ±100 for the full control effect; potency is read from the fitted curve at half-maximal effect. This is a subset; rates above refer to the full screens.
SMILES | VDR inh
COc1ccccc1NS(=O)(=O)c1cccc(C(=O)N/N=C2\CC(=O)CC(C)(C)C2)c1 | 1.3%
CCn1c(=O)c(C(=O)Nc2ccccc2S(N)(=O)=O)c(O)c2ccccc21 | -5.2%
O=C(Cc1c(F)cccc1Cl)Nc1ccccc1N1CCCCC1 | 15.4%
Cc1nnc(SCc2nnc(-c3ccc(Cl)cc3)o2)n1-c1ccccc1 | -7.8%
O=C(CSc1nnc(NC(=O)c2ccccc2)s1)NC1CCCC1 | 20.9%
C=C(C)CSc1nc2sc3c(c2c(=O)n1Cc1ccccc1)CC(C)(CC)OC3 (configuration not stated) | -26.7%
OC1CCN(c2c3c(nc4cc(-c5ccc(Cl)cc5)nn24)CCC3)CC1 | 5.2%
COc1cc(N(C(=O)Cc2cccs2)C(C(=O)NC2CCCCC2)c2ccc(C)cc2)ccc1-n1cnnn1 (configuration not stated) | 9.2%
COc1cccc(NC(=O)CN(C)CC(=O)Nc2ccc(C)c([N+](=O)[O-])c2)c1 | -1.6%
CC(C)[C@@H](N)C(=O)N/N=C/c1ccc2ncccc2c1 | -4.1%
CN(C)C(CNC(=O)CSc1nc2ccccc2c(=O)n1Cc1ccco1)c1ccccc1 (configuration not stated) | 1.8%
O=C(/C=C/c1cccc(Br)c1)NCC1CCCCC1 | -12.1%
CC(=O)[C@@H]1[C@@H]2C(=O)N(c3ccccc3F)C(=O)[C@@H]2[C@H]2c3ccccc3C=NN12 | -14.2%
C=CCN(c1cccc(C(F)(F)F)c1)S(=O)(=O)c1cccc(C(=O)OCC(=O)NC)c1 | 15.3%
Cc1ccc(CN(C)C(=O)COC(=O)CSc2ccc([N+](=O)[O-])cc2)cc1 | ?
COCCN(C(=O)CNC(=O)c1ccco1)C(C(=O)NC1CCCC1)c1cccc(OC)c1 (configuration not stated) | 3.5%
COc1ccc(CC(=O)N2N=C(C)CC2(O)c2cccnc2)cc1 (configuration not stated) | -4.6%
CNC[C@H]1Oc2c(NC(=O)c3ccc(-c4nccs4)cc3)cccc2C(=O)N([C@@H](C)CO)C[C@@H]1C | 5.1%
C=CCn1c(SCC(=O)NCC2CCCO2)nc2c([nH]c3ccccc32)c1=O (configuration not stated) | 9.3%
CC(Oc1cc2oc(=O)c3c(c2cc1Cl)CCCC3)C(=O)NCC1CCC(C(=O)O)CC1 (configuration not stated) | -19.7%
CC(=O)Nc1ccc(S(=O)(=O)NCCC(=O)Nc2ccc(C)cn2)cc1 | 2.8%
Cc1cc(C)nc(/N=C(\N)Nc2ccc([N+](=O)[O-])cc2)n1 | -4.8%
C=CCOC(=O)C1=C[C@H](c2coc3ccccc3c2=O)[C@@H](CCCO)[C@H](OCC)O1 | -4.0%
CN(Cc1ccccc1)C(=O)COC(=O)c1ccc[nH]c1=O | 3.4%
COC(=O)C1=C(C)N(c2ccc(C)cc2)/C(=C/c2cccs2)C1=O | 19.3%
N#Cc1cnn2c(C(F)(F)F)c3c(nc12)CCCC3 | -7.2%
N=c1n(CCN2CCCC2)c2ccccc2n1CC(O)c1ccco1 (configuration not stated) | 13.1%
CCn1c(SCC(=O)NCc2ccc3c(c2)OCO3)nnc1-c1ccco1 | -0.9%
COc1ccc(-n2c(C)cc(C(=O)CN3C(=O)C(=O)N(Cc4ccccc4)C3=O)c2C)cc1 | -22.7%
Cc1cccc(C(=O)NNC(=O)c2cccc([N+](=O)[O-])c2)c1 | -20.9%
CN(C)c1ccc(/C=N/NC(N)=S)cc1[N+](=O)[O-] | -8.1%
C/C(CC(=O)Nc1ccc2c(c1)OCCO2)=N\NC(=O)c1ccc([N+](=O)[O-])cc1Cl | 1.2%
O=C(Cn1c2ccccc2c2nc3n(c(=O)c21)CCCS3)Nc1ccccc1 | 3.5%
COc1ccccc1NC(=O)CN1C(=O)C2(SCC(=O)N2c2ccc(F)c(F)c2)c2ccccc21 (configuration not stated) | 2.1%
CC(C)CNS(=O)(=O)c1ccc(NC(=O)Cn2nc(-c3ccc(F)cc3)ccc2=O)cc1 | -27.0%
COc1ccc(CCC(=O)OCC(=O)Nc2c(C)nn(-c3ccccc3)c2C)cc1 | 13.7%
COCCNC(=O)CN1C(=O)c2cccnc2Oc2ccc(Cl)cc21 | 20.3%
NC(=O)CC(NC(=O)Cc1cccc2ccccc12)c1ccc(NCc2cc(F)ccc2F)c([N+](=O)[O-])c1 (configuration not stated) | -3.2%
O=C(O)c1cccc(NC(=O)C23CC4CC(C2)CC(n2cnc(Cl)n2)(C4)C3)c1 | 8.7%
CCN1CCN(c2nc3c(C)cccn3c(=O)c2/C=C(\C#N)S(=O)(=O)c2ccccc2)CC1 | -5.8%

# 4 entries picked at random from the list so far, as already listed:
SMILES | VDR inh
COc1ccc(CCC(=O)OCC(=O)Nc2c(C)nn(-c3ccccc3)c2C)cc1 | 13.7%
CCN1CCN(c2nc3c(C)cccn3c(=O)c2/C=C(\C#N)S(=O)(=O)c2ccccc2)CC1 | -5.8%
COCCNC(=O)CN1C(=O)c2cccnc2Oc2ccc(Cl)cc21 | 20.3%
COc1ccccc1NC(=O)CN1C(=O)C2(SCC(=O)N2c2ccc(F)c(F)c2)c2ccccc21 (configuration not stated) | 2.1%

# Later entries:
SMILES | VDR inh
c1ccc2[nH]c(CSc3nnc(-c4ccncc4)o3)nc2c1 | 1.9%
CC1=CC(C)(C)N(C(=O)CSc2ncn[nH]2)c2ccc(C)cc21 | 1.5%
S=c1[nH]nc(-c2ccc(Cl)cc2)n1CC1CCCO1 (configuration not stated) | -2.2%
Cc1ccccc1C1C(C#N)=C2N=C(N)c3ccccc3N2C2=C1C(=O)CCC2 (configuration not stated) | -4.3%
CCOc1cc(NC(=O)c2ccccn2)c(OCC)cc1NC(=O)c1cccc(C)c1 | -23.8%
CCOc1cc2[nH]c(=O)n(CCCC(=O)NCc3ccco3)c(=O)c2cc1OCC | -7.0%
COc1ccccc1-n1c(SCC(=O)O)nc2c(sc(=S)n2-c2ccccc2C)c1=O | -6.0%
CC1(C)Cc2c(sc(NC(=O)c3ccccc3)c2C(=O)O)CO1 | -19.0%
Cc1ccc(S(=O)(=O)N2CCN=C2c2ccccc2)cc1C | -0.2%
Cn1c(=O)c2nc(-c3ccc(Cl)cc3Cl)oc2c2ccccc21 | -17.6%
O=C(Cn1cnc([N+](=O)[O-])c1)NC1CCCC1 | -11.9%
Cc1ccc(/C=C2\SC(=S)N(CCCC(=O)Nc3ccc(O)cc3)C2=O)cc1 | 19.5%
C=CC[C@@H](CC(=O)NCCO)C(=O)N[C@@H](COC(=O)[C@@H](CC=C)Cc1ccc(F)cc1)Cc1c[nH]c2ccccc12 | -8.0%
COc1ccc(/C=N/NC(=O)CNC(=O)/C=C/c2ccccc2OC)cc1 | -16.4%
CCOC(=O)c1cc2c(ccn2C)n1CC(=O)N(Cc1ccccc1)c1ccc(F)cc1 | 9.6%
COCCn1c(SC)nnc1-c1c[nH]c2ccccc12 | -2.0%
CCCn1nnnc1SCC(=O)N1CCCC1 | 5.9%
CCOC(=O)c1[nH]c(=S)n(Cc2ccccc2)c1C(=O)OCC | 13.2%
CCc1cccc(NC(=O)CN(C)S(=O)(=O)c2cccc3cccnc23)c1 | 9.5%&-4.8%
CC(=O)OC(C(=O)NC1CCCCC1)c1ccc(C#N)cc1 (configuration not stated) | -10.7%

# 3 of the compounds above, with the structure last.
VDR inh,canonical_smiles
-16.4%,COc1ccc(/C=N/NC(=O)CNC(=O)/C=C/c2ccccc2OC)cc1
-2.0%,COCCn1c(SC)nnc1-c1c[nH]c2ccccc12
19.5%,Cc1ccc(/C=C2\SC(=S)N(CCCC(=O)Nc3ccc(O)cc3)C2=O)cc1

# Other results:
SMILES | VDR inh
C=CCC[C@@H](Cc1ccc(F)cc1)C(=O)OC[C@@H](Cc1c[nH]c2ccccc12)NC(=O)[C@H](CC=C)CC(=O)NCCO | -19.4%
COc1cc(C)c(Cl)cc1S(=O)(=O)NCC1CCCO1 (configuration not stated) | 0.6%
COc1cc(/C=N/NC(=S)Nc2cccc(Cl)c2C)ccc1OCC(=O)N1CC(C)OC(C)C1 (configuration not stated) | -18.9%
COc1ccccc1CNC(=O)N1CCN(c2ccccc2C)CC1 | 17.9%
O=C(NC1CCCC1)C(c1ccc(F)cc1)N(C(=O)Cc1cccs1)c1ccc2c(c1)OCCO2 (configuration not stated) | 9.4%
CN(C)c1ccc(NC(=O)c2ccc3nsnc3c2)cc1 | ?
O=C(CSc1nnc2ncccn12)N1CCCCCC1 | 20.7%
OCCN(CCO)CC(O)COc1ccc2c(c1)OCO2 (configuration not stated) | 15.4%
Nc1nn(S(=O)(=O)c2ccccc2)cc1-c1ccc([N+](=O)[O-])cc1 | -13.1%
CC(=O)Nc1cc(C(=O)NCc2ccc(C)cc2)ccc1Sc1ccc(C)cc1 | 10.2%
CCOC(=O)c1cccc(NC(=O)CN(c2ccc(C)cc2)S(=O)(=O)c2c(C)noc2C)c1 | -5.1%
COc1ccc(N2C(=O)CC(Sc3nnc(-c4ccccc4)o3)C2=O)cc1 (configuration not stated) | -4.6%
Cc1ccc(-c2nn(CCC(=O)O)cc2/C=C\C(=O)c2ccc(Br)cc2)cc1 | 35.5µM*
COc1ccc(CCNC(=O)COc2cc(C)cc3oc(=O)c(C)c(C)c23)cc1OC | -16.4%
COc1ccc(C2CC(C(F)(F)F)n3nc(C(=O)O)c(Cl)c3N2)cc1OC (configuration not stated) | 10.8%
O=C(Nc1ccc2c(c1)OCCO2)N1CCN(c2ccc(F)cc2)CC1 | -4.9%
COc1ccccc1C(=O)O/N=C(\c1ccccc1)c1ccncc1 | -6.7%
Cc1ccc(C(=O)Nc2nc(=O)n(C(=O)c3ccccc3C)s2)cc1 | 22.4µM*
O=C(CCCOc1ccccc1)Nc1ccc(Cl)c(S(=O)(=O)N2CCOCC2)c1 | -9.9%
CC(C)Sc1nc2ccccc2n2cnnc12 | -3.7%
Cc1ccc(C(=O)NCc2ccc3c(c2)CCN3C(=O)c2ccc(C)cc2)cc1 | 10.3%
CCN(C(=O)COc1ccccc1[N+](=O)[O-])C1CCS(=O)(=O)C1 (configuration not stated) | 1.5%
Cc1nc(C)c(C(=O)Nc2ccc(Oc3ccccc3)cc2)o1 | -5.1%
CCN1C[C@@H]2[C@@H]3C(=O)N(C)C(=O)[C@@H]3[C@](CC)(C1=O)N2C(=O)c1ccc(C(C)(C)C)cc1 | 15.3%
COc1ccc(OCC(=O)Nc2cccc(NC(=O)COc3ccc(OC)cc3)n2)cc1 | 9.4%
Cc1ccc(C(=O)N2CCN(CCNC(=O)C(=O)NCc3ccc(Cl)cc3)CC2)cc1 | -4.9%
O=C(C(Cl)Cl)N1CCN(Cc2ccc3c(c2)OCO3)CC1 | -6.0%
O=C(Nc1ccccc1Br)C1CC(=O)N(c2ccc3c(c2)OCCO3)C1 (configuration not stated) | -19.7%
CC1(C)N=C(N)NC(Nc2ccccc2Cl)=N1 | -0.4%
Cc1cc(=O)[nH]c2c1cnn2C(C)c1ccccc1 (configuration not stated) | -19.7%

# Three consecutive compounds from above:
SMILES | VDR inh
O=C(Nc1ccccc1Br)C1CC(=O)N(c2ccc3c(c2)OCCO3)C1 (configuration not stated) | -19.7%
CC1(C)N=C(N)NC(Nc2ccccc2Cl)=N1 | -0.4%
Cc1cc(=O)[nH]c2c1cnn2C(C)c1ccccc1 (configuration not stated) | -19.7%

# The results go on.
SMILES | VDR inh
COc1ccc(NC(=O)C2CCN(C(=O)C3CC(=O)N(c4ccc(C)cc4)C3)CC2)cc1 (configuration not stated) | -7.5%
CC1(C)CC2CC(C)(CN2C(=O)NC(=O)c2ccccc2)C1 (configuration not stated) | 0.9%
COc1ccc(NC(=O)c2ccc(-c3cccc(Cl)c3C)o2)cc1 | 5.0%
CCCCC(=O)NC1=NC(=O)C(C)(C)S1 | -6.9%
CC(OC(=O)C1=COCCO1)C(=O)NC(C)c1ccc(Cl)cc1Cl (configuration not stated) | -18.5%
COc1cccc(Cn2cc(/C=N/NC(=O)c3cc(O)cc(O)c3)c3ccccc32)c1 | 8.0%
COCCN1C(=O)N[C@@H](c2ccccc2)C(C(C)=O)=C1C | -4.6%&3.0%
COc1ccc(NC(=O)CN2C(=O)CSc3ccc(S(=O)(=O)N4CCCC4)cc32)cc1OC | -5.5%&19.9%
Cc1ccc(NC(=O)COc2ccc(Br)cc2C)cc1 | -5.1%
CCn1nc(C)cc1-c1n[nH]c(=S)n1N | -4.0%
C/C(=N\NC(=O)C1COc2ccccc2O1)c1ccccn1 (configuration not stated) | 5.5%
O=C1N(c2ccccc2)C(c2ccccc2)N2CCCN12 (configuration not stated) | -15.4%
O=C(O)c1ccc(N2C(=O)CSC2=S)cc1 | 11.8%
COc1ccc(NC(=O)CN2CCN(CC(=O)Nc3ccc(F)cc3)CC2)cc1Cl | -26.6%
O=C(Nc1ccc(N2CCOCC2)cc1)Nc1ccc(Cl)c(Cl)c1 | -11.1%
COc1cccc(N2CCN(C(=O)c3ccc(=O)oc3)CC2C)c1 (configuration not stated) | 2.3%
Cc1cccn2c(=O)nc(SCC(=O)NCc3ccccc3)nc12 | 9.0%
O=C(Cn1nc(-c2ccccc2)nc(Cc2ccccc2)c1=O)Nc1ccc(Cl)cc1 | 18.1%
NS(=O)(=O)c1ccc(CCNC(=S)NC2CCCCC2)cc1 | -0.9%
CCOCCCNC(=O)/C(C#N)=C/c1ccc(C)o1 | 3.4%
CCN(C(=O)c1cccn(Cc2cccc(Cl)c2)c1=O)c1ccccc1 | 4.7%
CC(NC(=O)c1noc2c1CCCCC2)c1ccccc1 (configuration not stated) | -4.8%
CC(=O)c1cc(-c2ccccc2)n(CCC(=O)NC(C)(C)C)c1C | 1.5%
